CtBP-E1A blk = qHTS Assay for Inhibitors of the CtBP/E1A Interaction; actives 0.49% (n = 340,000); AlphaScreen GST-E1A/His-CtBP binding, 1536-well; active compounds read low; control for the full effect not named in the record; CtBP / adenovirus E1A interaction (AlphaScreen); AID 651724, 2012; activity change, % (no concentration beside the values); in the data active means activity change below about -65%; inconclusive means about -30% to -65%; inactive means above about -30%; further: on the % scale 0 is the no-effect control and ±100 the full control effect
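Protein mix (5X: 125 nM each GST-E1A, His-CtBP) was incubated with pinned compound 2 h at 37 deg C in dark, in 50 mM Tris pH 8.0 buffer with 300 mM NaCl. Glutathione donor and nickel acceptor beads followed; AlphaScreen signal read after 1 h.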
gsp agonist = qHTS for Agonist of gsp, the Etiologic Mutation Responsible for Fibrous Dysplasia/McCune-Albright Syndrome: qHTS; gsp mutant cells, cAMP HTRF, 30 min; control for the full effect not named in the record; Potency, µM (series often up to 76.9 µM), for inactives: at the top dose activation (cAMP increase), most hits filed as activators; actives 0.13% (n = 340,000); active = well fitted activation curve with a large enough effect; inconclusive = small, poorly fitted or top-dose-only effect, or another doubt; inactive = no such curve, though single readings can be large or run the other way; cell line not stated here;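 further: phosphodiesterase inhibitor Ro 20-1724 added with compounds to block cAMP breakdown; potency means the concentration at half of the fitted maximal effect; nearly all actives have a fitted effect of over 60% in size; about a fifth of the inactives were tested at one dose only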
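Cells in DMEM/10% FBS with G418 were pretreated with compounds in DMSO plus […] (300 uM stock) for 30 min at 37C. cAMP was measured by HTRF (cAMP-d2 plus anti-cAMP antibody-K) after 30 min at room temperature.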
Menin MLL FP FL = qHTS Assay for Inhibitors Targeting the Menin-MLL Interaction in MLL Related Leukemias: Competition With Fluorescein Labeled MLL-derived Peptide; Fluorescence polarization, fluorescein-MLL peptide displacement from menin; FP activity change, % at 61.4 µM; 290,000 tested, under 10 active; AID 1766, 2009; inconclusive = falling polarisation curve, or a change in total fluorescence; inactive = total fluorescence flat and polarisation flat or rising; no compound was filed as active; the % refers to the polarisation; negative = inhibition;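 further: % of control where 0% means no effect; inhibitors lower the polarisation; unlabelled MLL peptide was the positive control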
TRPV1 potentiator = HTS Assay for Compounds that Act as Potentiators of the Vanilloid Receptor 1. potentiation, % at 8.33 µM. TRPV1-expressing cells, Fluo-8 calcium influx, capsaicin EC20 potentiation; host cell line not named in the record; control for the full effect not named in the record. actives 0.02% (n = 320,000); active means potentiation above 80%; inconclusive means 30% to 80%; inactive means below 30%; further: 0% is about no effect
Target sequence (Q8NER1 whole entry, looked up): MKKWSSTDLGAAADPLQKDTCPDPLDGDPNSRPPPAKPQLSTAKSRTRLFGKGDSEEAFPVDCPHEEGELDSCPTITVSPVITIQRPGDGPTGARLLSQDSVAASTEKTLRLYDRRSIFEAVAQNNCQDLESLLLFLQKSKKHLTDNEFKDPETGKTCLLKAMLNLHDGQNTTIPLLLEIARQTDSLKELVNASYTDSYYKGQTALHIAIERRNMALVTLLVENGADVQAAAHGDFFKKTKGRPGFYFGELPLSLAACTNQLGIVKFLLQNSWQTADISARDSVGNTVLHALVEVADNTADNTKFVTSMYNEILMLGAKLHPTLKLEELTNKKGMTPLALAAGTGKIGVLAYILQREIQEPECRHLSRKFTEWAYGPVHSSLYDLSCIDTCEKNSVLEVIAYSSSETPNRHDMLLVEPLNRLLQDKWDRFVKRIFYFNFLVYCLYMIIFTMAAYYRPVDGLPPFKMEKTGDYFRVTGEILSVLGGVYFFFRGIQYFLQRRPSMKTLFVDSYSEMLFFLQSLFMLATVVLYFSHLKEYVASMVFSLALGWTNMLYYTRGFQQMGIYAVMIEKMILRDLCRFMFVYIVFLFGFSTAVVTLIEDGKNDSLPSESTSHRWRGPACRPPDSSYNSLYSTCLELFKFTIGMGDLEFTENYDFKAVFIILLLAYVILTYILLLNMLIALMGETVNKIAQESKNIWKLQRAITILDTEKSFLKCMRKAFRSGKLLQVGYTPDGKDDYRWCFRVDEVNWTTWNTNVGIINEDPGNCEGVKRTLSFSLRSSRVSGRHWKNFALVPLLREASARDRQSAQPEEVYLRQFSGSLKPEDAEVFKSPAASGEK
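Cells expressing TRPV1 were dye-loaded with Fluo-8 and read kinetically: 10 s baseline, 3 min after compound (agonist portion), then 2 min after EC20 capsaicin (allosteric enhancer portion). Calcium-bound dye fluorescence at 480/520 nm.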
ClpP mod = qHTS Assay for Activators of ClpP | ATP-dependent Clp protease proteolytic subunit (Bacillus subtilis (strain 168)), P80244 | purified B. subtilis ClpP, FRET peptide cleavage, 20 min | Potency, µM (series often up to 57.5 µM), for the others: at the top dose activity change, negative = active | actives 1.9% (n = 340,000); active = well fitted falling curve with a large enough effect; inconclusive = small, poorly fitted or top-dose-only effect; inactive = no such curve, though single readings can be large or run the other way; further: potency means the concentration at half of the fitted maximal effect; the source files actives as falling curves though it sought activators and does not explain the sign; nearly all actives have a fitted effect of over 65% in size; many hits overshoot -100%
Target sequence (P80244 whole entry, looked up): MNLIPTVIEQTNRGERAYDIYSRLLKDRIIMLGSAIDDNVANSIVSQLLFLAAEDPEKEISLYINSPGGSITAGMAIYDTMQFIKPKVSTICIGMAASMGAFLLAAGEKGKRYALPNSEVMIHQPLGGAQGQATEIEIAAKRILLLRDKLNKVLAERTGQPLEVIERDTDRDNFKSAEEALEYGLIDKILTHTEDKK
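Purified B. subtilis ClpP, 10 microg/mL final in Tris/HCl pH8 with KCl, BSA, glycerol and Tween-20, cleaved an Abz/nitrotyrosine-quenched decapeptide. Fluorescence (ex 320, em 430) was read at 0 and 20 min at room temperature. Delta was normalized to 5.8 microM ADEP and DMSO/no-enzyme controls.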
gsp antag = qHTS for Antagonists of gsp, the Etiologic Mutation Responsible for Fibrous Dysplasia/McCune-Albright Syndrome: qHTS | gsp-mutant cells, cAMP HTRF, 30 min; control for the full effect not named in the record | Potency, µM (series often up to 76.9 µM), without a hit: at the top dose activity change, negative = inhibition, usual class: inhibitors | actives 0.4% (n = 340,000); active = falling curve of any shape with a large fitted effect; inconclusive = falling curve, mostly with a smaller effect; inactive = flat or rising curve; cell line not stated here;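 further: intracellular cAMP measured with PDE inhibitor Ro 20-1724 present during compound exposure; potency means the concentration at half of the fitted maximal effect; on the % scale 0 is the no-effect control and ±100 the full control effect; nearly all actives have a fitted effect of over 65% in size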
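HTRF cAMP read-out (cAMP-d2 plus anti-cAMP antibody-K in lysis buffer, 30 min RT). Before lysis, cells are exposed to compounds with […] for 30 min at 37C in DPBS containing Ca/Mg, BSA and Tween 20.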
Sfp inh = qHTS Assay for Inhibitors of Bacillus subtilis Sfp phosphopantetheinyl transferase (PPTase); Biochemical Sfp PPTase activity, qHTS; Potency, µM, without a hit: max response, negative = inhibition, most hits filed as inhibitors; actives 3.5% (n = 310,000); AID 1490, 2009; active means well fitted inhibition curve with a large enough effect; inconclusive means small, poorly fitted or top-dose-only effect, or another doubt; inactive means no such curve, though single readings can be large or run the other way;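 further: the enzyme is Sfp with the accession as filed and its product quenches rhodamine fluorescence; potency means the concentration at half of the fitted maximal effect; 0% = enzyme reaction without inhibitor and -100% = no enzyme wells; top concentration of the series not given in the record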
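After 15 min at room temperature with compound, 15 nM Sfp received 5 uM rhodamine-CoA plus 12.5 uM BHQ-2-ybbR (50 mM Hepes pH 7.6, 10 mM MgCl2). Rate came from the fluorescence difference over 30 min, ex 525/em 598 nm.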
Active calls of the source: *; ? = inconclusive; . = no result given; [ ] = remark or other dose.

Preview, two compounds:
SMILES	CtBP-E1A blk	gsp agonist	Menin MLL FP FL	TRPV1 potentiator	ClpP mod	gsp antag	Sfp inh
COCCCNC(=O)C[C@H]1C[C@H](C(=O)N2CCOCC2)[C@@]2(CCC3CCCC3)c3[nH]c4cc(CCC(=O)N(C)C)ccc4c3CCN2C1=O	-7	.	.	.	-4.6%	5%	.
COc1ccc(S(N)(=O)=O)cc1C(=O)NCCCN1CCN(c2ccccc2OC)CC1	0	6%	0.0	1	-3.8%	7%	19%

Results, repeating the preview:
SMILES	CtBP-E1A blk	gsp agonist	Menin MLL FP FL	TRPV1 potentiator	ClpP mod	gsp antag	Sfp inh
COCCCNC(=O)C[C@H]1C[C@H](C(=O)N2CCOCC2)[C@@]2(CCC3CCCC3)c3[nH]c4cc(CCC(=O)N(C)C)ccc4c3CCN2C1=O	-7	.	.	.	-4.6%	5%	.
COc1ccc(S(N)(=O)=O)cc1C(=O)NCCCN1CCN(c2ccccc2OC)CC1	0	6%	0.0	1	-3.8%	7%	19%
COc1ccccc1C(=O)N1CCCC1(C#N)c1ccccc1 (centres undefined)	32	?	-3.3	-4	0.9%	-2%	9%
Cc1cc(C)nc(SCC(=O)Nc2ccc(S(=O)(=O)Nc3nccs3)cc2)n1	-12	29%	3.9	-1	-1.1%	-1%	3%
CC(=O)c1cccc(NC(=O)c2onc(C)c2Cl)c1	2	?	-0.6	0	-0.2%	1%	26%
COc1ccc(NC(=O)C(=O)NCC2CCCN2S(=O)(=O)c2cccs2)cc1 (centres undefined)	0	0%[15.4 µM]	.	-3	2.1%	26%	.
Cc1ccc(C(=O)Nc2ccccc2N2CCCC2)cc1	-1	3%[15.4 µM]	2.4	-9	0.7%	-4%	12%
COc1ccc(NC(=O)CC2SC(=Nc3ccccc3)NC2=O)cc1 (centres undefined)	1	25%	-0.7	0	-2.3%	-10%	-6%
O=c1c2c3n(c(=O)nc2[nH]n1-c1ccccc1)CCCCC3	-2	4%	1.7	?	-1.8%	-16%	12%
CC1(C)Cc2cccc(OCC(=O)N3CCN(c4ccccc4F)CC3)c2O1	2	-18%[15.4 µM]	.	-7	0.4%	3%	.
O=C1CC2CCCC(C1)S2=O (centres undefined)	5	-18%	.	.	1.6%	.	.
CCN1C(=O)[C@H]2[C@@H](c3ccc(-c4ccc(F)cc4)c(OC)c3)N[C@@](C)(C(=O)OC)[C@H]2C1=O	-2	.	.	9	4.6%	?	.
C=CCNC(=O)C1CC(=O)N(c2ccc(OCC(=O)Nc3ccc(Cl)c(C(F)(F)F)c3)cc2)C1 (centres undefined)	-3	-17%	-0.3	14	1.2%	0%	-5%
CC(=O)Oc1ccc(-c2ccc(C(=O)OCC(=O)N(C)CC(=O)Nc3ccccc3Cl)cc2)cc1	-20	0%[15.4 µM]	.	7	?	12%	13%
COc1ccc(N(CC(=O)Nc2ccc(S(=O)(=O)N3CCCC3)cc2)S(C)(=O)=O)cc1OC	-2	-10%	0.3	-5	-1.6%	-5%	9%
CC1=C(C(=O)OCc2ccc3c(c2)OCO3)C(c2ccccc2OCc2ccccc2)NC(=O)N1 (centres undefined)	0	-19%	0.7	-8	-2.0%	-6%	-13%
COC(=O)COc1cccc(NC(=O)c2cc(OC)cc(OC)c2)c1	0	-3%[15.4 µM]	2.7	1	.	8%	15%
Cc1ccc(CN2C(=O)CNC2=S)cc1	7	1%	0.5	-19	1.3%	13%	16%
O=C(Nc1cccn(Cc2c(Cl)cccc2Cl)c1=O)c1ccc(Cl)cc1Cl	9	-11%	10	.	?	-11%	4%
O=C(Nc1cccc(-c2csc(Nc3cccc(C(F)(F)F)c3)n2)c1)c1cc([N+](=O)[O-])cc(C(F)(F)F)c1	5	.	2.4	-24	1.1%	6%	19%

One compound at a time, from the list above.
O=C1CC2CCCC(C1)S2=O (centres undefined) in the list: CtBP-E1A blk: 5; gsp agonist: -18%; Menin MLL FP FL: .; TRPV1 potentiator: .; ClpP mod: 1.6%; gsp antag: .; Sfp inh: .
COC(=O)COc1cccc(NC(=O)c2cc(OC)cc(OC)c2)c1 in the list: CtBP-E1A blk: 0; gsp agonist: -3%[15.4 µM]; Menin MLL FP FL: 2.7; TRPV1 potentiator: 1; ClpP mod: .; gsp antag: 8%; Sfp inh: 15%

Continued:
SMILES	CtBP-E1A blk	gsp agonist	Menin MLL FP FL	TRPV1 potentiator	ClpP mod	gsp antag	Sfp inh
CCCCCCn1c(SCCOC)nc2c1c(=O)[nH]c(=O)n2C	21	-57%[inhibitor]	2.9	-4	0.5%	4%	20%
Nc1nc(N)c2cc(Sc3ccc4ccccc4c3)ccc2n1	18	1%	1.0	11	3.6%	-1%	?
Cc1ccc(NC(=O)c2ncn(CCCNCCCN(C)C)n2)cc1C	2	.	.	.	1.3%	11%	.
CC(C)(C)c1cc(NC(=O)Nc2ccccc2)no1	3	?	5.2	-19	-2.1%	-5%	19%
NC(=O)c1ccc[n+](Cc2cccc3ccccc23)c1	2	-5%[15.4 µM]	?	-12	1.3%	18%	19%
CC(=O)Nc1ccc(Nc2cc(N(C)C)c3nonc3c2[N+](=O)[O-])cc1	8	13%	-14	7	.	3%	4%
CCOc1cc(C(=O)Nc2ccc(S(=O)(=O)Nc3nnc(CC)s3)cc2)cc(OCC)c1OCC	-12	28%[15.4 µM]	-12	-3	.	-17%	-4%
O=C(CN1C(=O)/C(=C/c2ccco2)SC1=S)Nc1ccc(C(=O)O)c(O)c1	.	13%	.	3	2.4%	-9%	50µM*
CCOc1cc(C2C3=C(CCCC3=O)N(CCC(=O)O)C3=C2C(=O)CCC3)ccc1OS(=O)(=O)c1ccc(C)cc1	0	2%	1.3	-5	?	3%	9%
CCn1c2ccccc2c2cc(NC(=O)CC(C)=O)ccc21	0	5%	6.5	7	-11%	-7%	-14%
COC(=O)c1cc(NC(=O)CSC2=NCCS2)cc(C(=O)OC)c1	-28	-6%[15.4 µM]	3.2	-1	25µM*	-5%	0%
COc1ccc(NC(=O)CC(Cc2ccccc2)C(=O)O)cc1 (centres undefined)	6	-10%	0.3	0	-1.8%	10%	22%
COc1ccc(OC)c(CC(NC(C)=O)C(=O)NC2CCN(c3nc(OC)nc(OC)n3)CC2)c1 (centres undefined)	-2	-22%	0.4	4	-0.9%	-9%	22%
Cc1cc(C)c(S(=O)(=O)NCCSCc2ccco2)c(C)c1	-23	6%	.	3	-0.2%	-20%	.
CNC(=O)N(C1=NCC(C)S1)c1ccc(F)cc1F (centres undefined)	3	?	2.8	-7	-0.8%	8%	15%
CCC(=O)N1CCc2cc(S(=O)(=O)CCC(=O)NC3CCCCC3)ccc21	.	1%	.	-1	-0.4%	-3%	10%
Cc1ccc(C2CC(C(F)F)n3ncc(C(=O)Nc4cnn(Cc5ccccc5C)c4)c3N2)cc1 (centres undefined)	-3	?	-1.5	-8	-6.7%	-3%	11%
CCCCC(CC)C(=O)Nc1ccc(S(=O)(=O)Nc2nccs2)cc1 (centres undefined)	-18	-4%	-0.2	3	-2.6%	-5%	4%
CC(C)=CCCC(C)CN1CCC(O)CC1 (centres undefined)	1	-12%	2.1	11	0.6%	14%	-11%
COc1ccc(OCCOC(=O)CN2C(=O)NC3(CCCC3)C2=O)cc1	-22	5%	.	17	-3.0%	6%	.

Entries listed above shown as hits in Sfp inh:
SMILES	CtBP-E1A blk	gsp agonist	Menin MLL FP FL	gsp antag	Sfp inh
O=C(CN1C(=O)/C(=C/c2ccco2)SC1=S)Nc1ccc(C(=O)O)c(O)c1	.	13%	.	-9%	50µM*

(next part)
SMILES	CtBP-E1A blk	gsp agonist	Menin MLL FP FL	TRPV1 potentiator	ClpP mod	gsp antag	Sfp inh
O=C(Cc1ccc(-c2ccccc2)cc1)NCc1cccnc1	-3	-1%[15.4 µM]	-0.6	-3	.	7%	6%
O=C(COc1ccc(Cl)cc1Cl)NNC(=S)NC(=O)c1ccco1	1	25%[15.4 µM]	0.8	4	.	-1%	?
COc1ccc(NC(=O)COc2ccc(N(C)S(=O)(=O)c3ccc(Cl)cc3)cc2)cc1	3	-4%	.	-11	0.7%	-14%	.
CCc1ccc(C(=O)NNC(=O)c2cccc(N3C(=O)CCC3=O)c2)cc1	3	11%	.	4	-2.2%	-2%	.
O=C(NC(=S)Nc1cccc(NC(=O)c2ccccc2Cl)c1)c1cccs1	-1	-4%	1.7	10	-5.8%	3%	-2%
COc1ccc(CCNC(=O)C2CCN(S(=O)(=O)c3ccc4nc5c(c(C(=O)O)c4c3)CCCC5)CC2)cc1OC	?	-9%	1.5	2	-1.6%	7%	18%
CC(C)C(=O)Nc1ccc(C(=O)NNC(=O)C(c2ccccc2)c2ccccc2)cc1	3	?	-0.9	23	1.8%	8%	16%
COc1ccccc1/C=C/C=N/n1c(COc2ccccc2)n[nH]c1=S	-3	-23%	-2.3	-6	3.2%	?	11%
CCc1cc2c(-n3nc(C)cc3C)ncnc2s1	3	22%	-0.2	14	-16%	?	-3%
COc1ccc(CCN2CCCn3c2nc2c3c(=O)n(Cc3ccccc3F)c(=O)n2C)cc1OC	?	-5%	6.6	-8	-2.8%	-23%	-10%
COC(=O)[C@H](Cc1ccc(O)cc1)NC(=O)Cn1cnc(C(=O)Nc2ccc(C)c(C)c2)n1	-1	.	.	.	0.8%	3%	.
O=C(O)CSCc1c(F)cccc1Cl	9	-16%	-0.9	11	-2.0%	-4%	17%
Cc1ccc(NC(=O)C2CCCN(c3ncccn3)C2)c(C)c1 (centres undefined)	-2	15%	2.8	11	.	3%	12%
CS(=O)(=O)N(CC(=O)N1CCCC1)c1cccc(F)c1	3	5%[15.4 µM]	-3.4	-4	-0.7%	0%	1%
Cc1cccnc1NC(=O)CSc1nnc(COc2ccc(C(C)C)cc2)n1C	3	-4%	-0.9	11	1.1%	0%	-3%

High-throughput results (PubChem)
